Bioassay records deposited in PubChem BioAssay by several laboratories.
BJeLR lethal: BJeLR cell viability loss. BJeLR (HRASV12) viability, CellTiter-Glo ATP luminescence, 48 h; reference of the scale not given here. inhibition, % (no concentration beside the values). 300,000 tested, 0.17% active;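 active = replicate mean above 50%; inconclusive = above 50% but judged a plate artefact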;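 also: 50 nL library stock added to about 25 µL; numbers are from one replicate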
ugtP null kill: growth inhibition of S. aureus ugtP deletion strain. S. aureus RN4220 ugtP deletion, OD600 growth, 16 h; some inactives read as strong as hits. growth inhibition, % (concentration not given with the values). 330,000 tested, 0.54% active;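 active = z-score under -3 and OD600 up to 0.15 on both plates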;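 also: plate controls were untreated wells for no effect and antibiotic for full effect; wells of about 80 µL received 100 nL stock; the first replicate is given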
PrP UTR inh: suppresses PrP 5' UTR mRNA reporter expression | inhibition, % (concentration not given with the values) | cell-based PrP 5' UTR mRNA reporter, plate reader | 340,000 tested, 0.35% active;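 active = every replicate at 50% or more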;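 also: 0 = median of the neutral control wells; tested in H4 reporter cells; numbers are from one replicate; inactives centre near -14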
Sa RN4220 lethal: S. aureus RN4220 growth inhibition; OD600, 16 h; inhibition, % (test concentration not listed); 330,000 tested, 0.33% active;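 active = z-score of -3 or lower and OD600 up to 0.18 on both plates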;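 also: plate controls were untreated cells for no effect and reference antibiotic for full effect; stock transfer was 100 nL into about 80 µL; one replicate is shown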
Mtb hypoxia rep: Mtb hypoxia fluorescent reporter inhibition. M. tuberculosis hypoxia-regulated fluorescent reporter, fluorescence. fluorescence inhibition, % (concentration not given with the values). 300,000 tested, 0.1% active. AID 1159583;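 active = 35 to 45% if threefold the growth effect, above 45% if 1.5-fold the growth effect; inactive = the rest, general growth blockers included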;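 also: wells of about 50 µL received 100 nL stock; 0% = vehicle wells and 100% = reference inhibitor wells; whole bacteria with a GFP reporter of the hypoxia response; strong numbers were not always called active; many hits fall short of the cut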
Autofluor counter: flagged as autofluorescent in microsphere protease counterscreen | 360,000 tested, 3.1% active | AID 624483 | compound autofluorescence counterscreen, microsphere flow cytometry; hits give high values | fluorescence intensity (concentration not given with the values);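 active = at least 3 SD above the mean of all compounds, about 16000 in these data; inconclusive = too few beads counted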;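 also: 100 nL of 1 mM stock went into each well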
Mtb hypoxia rep growth: also measured in Mtb hypoxia rep; calls as there; growth inhibition, %; measured here: M. tuberculosis growth (absorbance);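 0% = vehicle and 100% = reference antibiotic; read after six days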
Active calls of the source: *.

What do the screens show for `COc1ccc(Cn2c(CCC(=O)Nc3ccc(C)c(C)c3)nc3cccnc32)cc1`?
BJeLR lethal: 0; ugtP null kill: 2; PrP UTR inh: -27; Sa RN4220 lethal: 5.9; Mtb hypoxia rep: 1; Autofluor counter: 3412; Mtb hypoxia rep growth: 2

What do the screens show for `O=C(NN=Cc1ccc(-c2cccc([N+](=O)[O-])c2)o1)c1ccccc1O`?
ugtP null kill: -6; Sa RN4220 lethal: -9.3; Mtb hypoxia rep: -14; Mtb hypoxia rep growth: -4

Results for CC1=NN(c2ccccc2)C(=O)/C1=C/c1cc(C)n(C2CC2)c1C ?
BJeLR lethal: 1; ugtP null kill: 8; PrP UTR inh: -60; Sa RN4220 lethal: 8.4; Mtb hypoxia rep: 5; Autofluor counter: 3641; Mtb hypoxia rep growth: -4

How did COC(=O)c1c(NC(=O)COC(=O)CCS(=O)(=O)c2ccc(C)cc2)sc(C)c1C do in these assays?
BJeLR lethal: 5; ugtP null kill: 0; PrP UTR inh: -4; Sa RN4220 lethal: 6.1; Mtb hypoxia rep: 1; Autofluor counter: 7775; Mtb hypoxia rep growth: -3

What do the screens show for `COc1ccc2c3c([nH]c2c1)C(C)NCC3` (stereo not drawn)?
BJeLR lethal: 1; ugtP null kill: -12; PrP UTR inh: -10; Sa RN4220 lethal: 3.0; Autofluor counter: 7006

How did O=C(CCl)N1N=C(c2cccs2)CC1c1ccco1 (stereo not drawn) do in these assays?
BJeLR lethal: 23; ugtP null kill: 1; PrP UTR inh: -22; Sa RN4220 lethal: 4.9; Mtb hypoxia rep: 25; Autofluor counter: 3533; Mtb hypoxia rep growth: 18

What do the screens show for `Cc1ccc(NC(=O)CN2C(=O)NC(C)(C3CC3)C2=O)c([N+](=O)[O-])c1` (stereo not drawn)?
ugtP null kill: 1; PrP UTR inh: -5; Sa RN4220 lethal: 3.7; Mtb hypoxia rep: 5; Autofluor counter: inconclusive; Mtb hypoxia rep growth: 12

What do the screens show for `CCOc1ccc(S(=O)(=O)n2cc(-c3ccccc3)c(N)n2)cc1`?
BJeLR lethal: -16; ugtP null kill: 0; PrP UTR inh: 1; Sa RN4220 lethal: 1.8; Mtb hypoxia rep: -1; Autofluor counter: 23986*; Mtb hypoxia rep growth: 14

Results for O=C(Nc1ccccc1)C1CCN(C(=O)c2ccc([N+](=O)[O-])cc2)CC1 ?
BJeLR lethal: 5; ugtP null kill: 2; PrP UTR inh: -7; Sa RN4220 lethal: 1.7; Mtb hypoxia rep: -11; Autofluor counter: 2006; Mtb hypoxia rep growth: 5

How did CN(C)S(=O)(=O)c1ccc(NC(=O)COC(=O)C2CC3CCCC(C2)C3=O)cc1 (stereo not drawn) do in these assays?
BJeLR lethal: -12; ugtP null kill: 18; PrP UTR inh: -38; Sa RN4220 lethal: 7.6; Mtb hypoxia rep: 7; Autofluor counter: 4340; Mtb hypoxia rep growth: 3

Fetched by structure from the list above (four):
What do the screens show for `COc1ccc2c3c([nH]c2c1)C(C)NCC3` (stereo not drawn)?
BJeLR lethal: 1; ugtP null kill: -12; PrP UTR inh: -10; Sa RN4220 lethal: 3.0; Autofluor counter: 7006

How did CN(C)S(=O)(=O)c1ccc(NC(=O)COC(=O)C2CC3CCCC(C2)C3=O)cc1 (stereo not drawn) do in these assays?
BJeLR lethal: -12; ugtP null kill: 18; PrP UTR inh: -38; Sa RN4220 lethal: 7.6; Mtb hypoxia rep: 7; Autofluor counter: 4340; Mtb hypoxia rep growth: 3

What do the screens show for `COc1ccc(Cn2c(CCC(=O)Nc3ccc(C)c(C)c3)nc3cccnc32)cc1`?
BJeLR lethal: 0; ugtP null kill: 2; PrP UTR inh: -27; Sa RN4220 lethal: 5.9; Mtb hypoxia rep: 1; Autofluor counter: 3412; Mtb hypoxia rep growth: 2

How did COC(=O)c1c(NC(=O)COC(=O)CCS(=O)(=O)c2ccc(C)cc2)sc(C)c1C do in these assays?
BJeLR lethal: 5; ugtP null kill: 0; PrP UTR inh: -4; Sa RN4220 lethal: 6.1; Mtb hypoxia rep: 1; Autofluor counter: 7775; Mtb hypoxia rep growth: -3

Remaining list, next part
Results for C=CCNC(=O)COC(=O)CNC(=O)c1cc(Cl)cc([N+](=O)[O-])c1 ?
BJeLR lethal: 3; ugtP null kill: 9; PrP UTR inh: 1; Sa RN4220 lethal: 2.9; Mtb hypoxia rep: 16; Autofluor counter: 3333; Mtb hypoxia rep growth: 10

How did COc1ccc(Cc2noc(CN3CCCN(C4Cc5ccccc5C4)CC3)n2)cc1OC do in these assays?
BJeLR lethal: 7; ugtP null kill: 4; PrP UTR inh: -29; Sa RN4220 lethal: 5.8; Mtb hypoxia rep: -4; Autofluor counter: 4776; Mtb hypoxia rep growth: 0

Results for O=C(NCc1ccco1)/C(=C/c1ccc(C(F)(F)F)cc1)c1nc2ccccc2[nH]1 ?
BJeLR lethal: -9; ugtP null kill: -1; PrP UTR inh: -57; Sa RN4220 lethal: -1.3; Mtb hypoxia rep: 5; Autofluor counter: 2666; Mtb hypoxia rep growth: -2

What do the screens show for `COc1cc(C)nc(SCC(N)=O)n1`?
BJeLR lethal: 3; ugtP null kill: -3; PrP UTR inh: -6; Sa RN4220 lethal: 1.7; Mtb hypoxia rep: 0; Autofluor counter: 3024; Mtb hypoxia rep growth: 3

Results for COC(=O)c1cc(N2C(=O)C3C4C=CC(CC4)C3C2=O)ccc1Cl (stereo not drawn) ?
BJeLR lethal: 2; ugtP null kill: 2; PrP UTR inh: -10; Sa RN4220 lethal: -0.8; Mtb hypoxia rep: 4; Autofluor counter: 3543; Mtb hypoxia rep growth: -5

Results for CCC/C(=N\NC(=O)c1cccc(C)c1)c1ccccc1 ?
BJeLR lethal: -1; PrP UTR inh: -26; Autofluor counter: 2317

Results for Cc1ccc(N2C(=O)CC(N3CCSCC3)C2=O)c(C)c1 (stereo not drawn) ?
BJeLR lethal: 4; ugtP null kill: 3; PrP UTR inh: -10; Sa RN4220 lethal: 3.1; Mtb hypoxia rep: -2; Autofluor counter: 5104; Mtb hypoxia rep growth: -3

What do the screens show for `O=C(CN1C(=O)NC(c2ccccc2)(c2ccccc2)C1=O)NCCNCCO`?
BJeLR lethal: 5; ugtP null kill: 10; PrP UTR inh: -17; Sa RN4220 lethal: 5.9; Mtb hypoxia rep: 1; Autofluor counter: 4068; Mtb hypoxia rep growth: 14

How did N#Cc1ccc(CSc2ncccn2)cc1 do in these assays?
BJeLR lethal: -8; ugtP null kill: 7; PrP UTR inh: -37; Sa RN4220 lethal: 3.3; Mtb hypoxia rep: 0; Autofluor counter: 4071; Mtb hypoxia rep growth: 2

How did CCOC(=O)c1c(-c2cccc(C)c2)csc1NC(=O)C1CC=CCC1C(=O)O (stereo not drawn) do in these assays?
BJeLR lethal: 12; ugtP null kill: 9; PrP UTR inh: -10; Sa RN4220 lethal: 17; Autofluor counter: 2229

How did COc1ccc(CC(=O)N(C)C2CCCN(Cc3ccccc3F)C2)cc1OC (stereo not drawn) do in these assays?
BJeLR lethal: 4; ugtP null kill: 10; PrP UTR inh: -9; Sa RN4220 lethal: 6.5; Mtb hypoxia rep: -4; Autofluor counter: 3330; Mtb hypoxia rep growth: 0

How did Cc1ccc(N(CC(=O)NC(C)C)C(=O)CCC(=O)Nc2ccccn2)cc1 do in these assays?
BJeLR lethal: -14; ugtP null kill: 7; PrP UTR inh: -30; Sa RN4220 lethal: 1.5; Mtb hypoxia rep: -7; Autofluor counter: 4028; Mtb hypoxia rep growth: -3

What do the screens show for `Cc1ccc2nc(C)cc(C(=O)Nc3nccs3)c2c1`?
BJeLR lethal: -4; ugtP null kill: 1; PrP UTR inh: -14; Sa RN4220 lethal: 10; Mtb hypoxia rep: 10; Autofluor counter: 4388; Mtb hypoxia rep growth: 2

Results for Cc1cccc(CN2C(=O)[C@@H]3Cc4c([nH]c5ccccc45)C(C)(C)N3C2=O)c1 ?
BJeLR lethal: 12; PrP UTR inh: -14; Autofluor counter: 2973

Results for O=C1CSc2ccc(C(=O)NCCc3ccc(Cl)cc3Cl)cc2N1 ?
ugtP null kill: 3; PrP UTR inh: -11; Sa RN4220 lethal: 3.8; Autofluor counter: 4043

How did CSC1=NP(=S)(SC)N(C)c2nc3n(c21)CCC3 (stereo not drawn) do in these assays?
BJeLR lethal: 3; ugtP null kill: 4; Sa RN4220 lethal: 0.2

What do the screens show for `N#Cc1ccc(-c2csc(NC(=O)c3ccc(N4C(=O)CCC4=O)cc3)n2)cc1`?
BJeLR lethal: 2; ugtP null kill: 12; PrP UTR inh: -4; Sa RN4220 lethal: 8.3; Mtb hypoxia rep: 2; Autofluor counter: 4169; Mtb hypoxia rep growth: 4

Results for O=C(NCCCn1ccnc1)C(=O)c1cn(CC(=O)N2CCCCCC2)c2ccccc12 ?
ugtP null kill: 3; PrP UTR inh: 3; Sa RN4220 lethal: 5.3; Mtb hypoxia rep: -22; Autofluor counter: 6126; Mtb hypoxia rep growth: -10

How did O=C(NCC(c1ccco1)N1CCCC1)c1cc(S(=O)(=O)N2CCOCC2)ccc1Cl (stereo not drawn) do in these assays?
ugtP null kill: 0; PrP UTR inh: -12; Sa RN4220 lethal: -0.6; Mtb hypoxia rep: 3; Autofluor counter: 5156; Mtb hypoxia rep growth: 0

How did CC(=O)Nc1ccc(C2CN(C)CC2C(=O)c2ccc(Cl)cc2)cc1 (stereo not drawn) do in these assays?
BJeLR lethal: -8; ugtP null kill: 2; PrP UTR inh: 4; Sa RN4220 lethal: 2.9; Mtb hypoxia rep: 10; Autofluor counter: 4985; Mtb hypoxia rep growth: -1

Results for CC1CN(C(=S)NC(=O)c2ccco2)CC(C)O1 (stereo not drawn) ?
BJeLR lethal: -6; ugtP null kill: 8; PrP UTR inh: -19; Sa RN4220 lethal: 4.3; Mtb hypoxia rep: -1; Autofluor counter: 2511; Mtb hypoxia rep growth: -4

Results for C=CCOc1c(CNc2ncn[nH]2)cccc1OC ?
BJeLR lethal: 1; ugtP null kill: 2; PrP UTR inh: -19; Sa RN4220 lethal: 7.1; Mtb hypoxia rep: 2; Autofluor counter: 3302; Mtb hypoxia rep growth: 1

How did O=C(c1cc(-c2ccc(O)cc2)on1)N1CCCC1 do in these assays?
BJeLR lethal: -13; ugtP null kill: 0; PrP UTR inh: -38; Sa RN4220 lethal: 6.2; Mtb hypoxia rep: 7; Autofluor counter: 5427; Mtb hypoxia rep growth: 10

What do the screens show for `O=C(Cn1cnc2ccccc21)N1CCc2ccccc21`?
BJeLR lethal: -6; ugtP null kill: 3; PrP UTR inh: -26; Sa RN4220 lethal: 3.3; Mtb hypoxia rep: 2; Autofluor counter: 1971; Mtb hypoxia rep growth: -5

What do the screens show for `O=C(Nc1ccccc1OC(F)F)c1cc2c(s1)CCC2`?
BJeLR lethal: -2; ugtP null kill: -8; PrP UTR inh: -3; Sa RN4220 lethal: 6.0; Mtb hypoxia rep: 5; Autofluor counter: 2926; Mtb hypoxia rep growth: 1

What do the screens show for `Cc1ccc(OCC(=O)N(Cc2ccco2)C2CCS(=O)(=O)C2)cc1C` (stereo not drawn)?
BJeLR lethal: 5; ugtP null kill: 0; PrP UTR inh: 7; Sa RN4220 lethal: 5.6; Mtb hypoxia rep: 6; Autofluor counter: 4085; Mtb hypoxia rep growth: 3

What do the screens show for `COc1ccc2[nH]c3c(c2c1)CCN1C(=O)C(CC(=O)NCc2ccco2)C[C@H](C(=O)N(C(C)C)C(C)C)[C@@]31C` (stereo partly drawn)?
ugtP null kill: -5; PrP UTR inh: -9; Sa RN4220 lethal: 2.8; Mtb hypoxia rep: -9; Autofluor counter: 3800; Mtb hypoxia rep growth: 8

Results for C=C(C)CSc1nc(N)c(C#N)c(-c2ccc(C)cc2)c1C#N ?
BJeLR lethal: 8; ugtP null kill: 21; PrP UTR inh: -34; Sa RN4220 lethal: 5.9; Mtb hypoxia rep: -7; Autofluor counter: 11206; Mtb hypoxia rep growth: 1

How did Cc1cc(N2CCOCC2)n2ncc(-c3ccccc3)c2n1 do in these assays?
BJeLR lethal: 22; ugtP null kill: 9; Sa RN4220 lethal: 0.2; Mtb hypoxia rep: 5; Autofluor counter: 9925; Mtb hypoxia rep growth: 11

Results for O=C(CCc1ccc(O)c(O)c1)N/N=C/c1cc2c(cc1[N+](=O)[O-])OCO2 ?
BJeLR lethal: 10; PrP UTR inh: -15; Autofluor counter: 5399

How did O=C(c1cc(COc2ccc(F)cc2Cl)on1)N1CCc2sccc2C1 do in these assays?
BJeLR lethal: -4; ugtP null kill: 2; PrP UTR inh: -19; Sa RN4220 lethal: 2.1; Mtb hypoxia rep: 13; Autofluor counter: 6223; Mtb hypoxia rep growth: 2
